High-throughput results: PubChem, National Center for Advancing Translational Sciences (NCATS)
Vaccinia mCherry = inhibitors of vaccinia virus infection (mCherry reporter signal); Vaccinia virus mCherry reporter infection, fluorescence; about a quarter of the inactives have no number; Potency, µM (doses to about 36.5 µM), without a hit: top-dose activity change, negative = inhibition, hits mostly inhibitors; hit rate 0.63% among 310,000; active = well fitted inhibition curve with a large enough effect; inconclusive = small, poorly fitted or top-dose-only effect; inactive = no such curve, though single readings can be large or run the other way; tested in A549 cells; further: nearly all actives have a fitted effect of over 35% in size; inactives centre near -10
VACV Venus inh = vaccinia inhibition (Venus reporter). Vaccinia virus Venus reporter expression, fluorescence. Potency, µM (top dose mostly 36.5 µM), without a hit: at the top dose activity change, negative = inhibition, most hits filed as inhibitors. hit rate 0.46% among 330,000. AID 720580; active means well fitted inhibition curve with a large enough effect; inconclusive means small, poorly fitted or top-dose-only effect; inactive means no such curve, though single readings can be large or run the other way; tested in A549 cells; further: nearly all actives have a fitted effect of over 30% in size; inactives centre near -10
* hit, by the source's call; i = inactive; ? = inconclusive; · = no result given; [ ] = remark or other dose. On the % scale 0 is the no-effect control and ±100 the full control effect; potency means the concentration at half of the fitted maximal effect.

SMILES	Vaccinia mCherry	VACV Venus inh
O=C(Cc1cccc2ccccc12)NN=Cc1ccc2c(c1)CCC2	-9%	-22%
COc1ccc(-c2nc3ccccc3o2)cc1NC(=O)COc1ccc(C)cc1	?	?
CC(=O)c1sc2nc(-c3ccco3)ccc2c1N	-20%	-10%
COc1ccc(C(=O)NC(=S)NCc2ccccc2)cc1OC	i	-6%
Cc1ccc(-n2c(SCC(=O)Nc3ccc4c(c3)OCCO4)nnc2-c2ccco2)cc1	-17%[1.46 µM]	-26%
O=C(NCCN1CCOCC1)C1CC(=O)N(c2ccc(F)cc2)C1 (stereo not drawn)	9%	1%
CCOc1ccc2oc(C(=O)N3CCCN(C)CC3)c(C)c2c1	-5%	-8%
COc1ccc2c(C)c(CC(=O)N3C[C@H]4C[C@@H](C3)c3cccc(=O)n3C4)c(=O)oc2c1OC	-13%	-2%
CC(=O)NC(Cc1ccc(F)cc1)C(=O)NC1CCN(C(=O)NCc2ccccc2)CC1 (stereo not drawn)	-8%	6%
CC(=O)c1cccc(NC(=O)C(C)OC(=O)c2cc(C)oc2C)c1 (stereo not drawn)	-9%	-3%
C[C@@H](CN1C2=NC[C@H](C)N2C[C@H]1Cc1ccc(O)cc1)NC(=O)CCC1CCCCC1	-13%	-2%
CCN(CC)C(=S)NCCc1ccccc1	-26%	-22%
CC(C)(C)n1nnnc1C(CCc1ccccc1)N1CCN(C/C=C/c2ccccc2)CC1 (stereo not drawn)	4%	-14%
COc1ccc(/C=C/C(=O)NCCOc2ccc(C)cc2)cc1	-20%	-19%
O=C(c1ccccc1F)N1CCN(c2ccc([N+](=O)[O-])c(NCC3CCCO3)c2)CC1 (stereo not drawn)	-14%	-26%
Cc1nc2ccccc2n1CC(=O)OCC(=O)N1CCC(C)CC1	i	-15%
CCN(CC)c1ccc([N+](=O)[O-])cc1C(=O)N1CCOCC1	-13%	10%
NC(=O)C(CC(=O)O)NC(=O)[C@@H]1CCOc2c(I)cc([N+](=O)[O-])cc2C(=O)N[C@@H](CCC(=O)O)C(=O)N[C@@H](CO)C(=O)N1 (stereo partly drawn)	-10%	-2%
CC(NC(=O)COC(=O)c1cc(NS(=O)(=O)c2ccc(Cl)c([N+](=O)[O-])c2)ccc1O)C1CC2CCC1C2 (stereo not drawn)	-7%	-21%
CC(=O)Nc1ccccc1Sc1ccc2c3c(cccc13)C(=O)N(c1ccc(C)cc1)C2=O	-10%	-4%
Cc1ccc(NCc2nc(SCC(=O)Nc3ccccc3)n[nH]2)cc1	-18%	-4%
CNC[C@H]1Oc2ccc(NC(=O)C3CCCCC3)cc2CC(=O)N([C@H](C)CO)C[C@@H]1C	-12%	5%
O=C(O)CCSc1nc2ccccc2n1CCOc1ccccc1	-14%	3%
Cc1ccc2nc(-c3ccccc3NC(=O)CCC(=O)O)c(=O)[nH]c2c1	-15%	-8%
CCC1Oc2ccc(C)cc2N(CC(=O)N2CCOCC2)C1=O (stereo not drawn)	i	5%
O=C1CCCC2=C1C1(O)C(=O)c3ccccc3C1(O)O2 (stereo not drawn)	-13%	-3%
CCN(CC)S(=O)(=O)c1cccc(C(=O)OCC(=O)NC(C)c2ccccc2)c1 (stereo not drawn)	-14%	2%
CCn1c(SCC(=O)O)nc2ccccc21	-3%	-1%
COc1ccc(C(NC(=O)C2CCN(C/C=C/c3ccc(OC(C)=O)c(OC)c3)CC2)c2ccccn2)cc1 (stereo not drawn)	?	-19%
Cc1cc(C)cc(NCc2cc(=O)oc3cc(-c4ccccc4)c(O)cc23)c1	?	-17%
CC1CCC(C)(NS(=O)(=O)OCC(Cl)(Cl)Cl)CC1 (stereo not drawn)	i	-23%
Cc1cccc(C(=O)Nc2ccc(-c3nc4ccccc4s3)cc2Cl)c1	-18%	-20%
COc1ccccc1CNC(=O)COC(=O)c1cccc(S(=O)(=O)N2CCOCC2)c1	-10%	-2%
Cc1cccc(NC(=O)[C@H](Cc2ccccc2)NC(=O)OCc2ccccc2)c1	-13%	-9%
O=C(CN1C(=O)NC(c2ccc(F)cc2)C1=O)NC1CCCCC1 (stereo not drawn)	-15%	-11%
CCCCSc1oc(-c2ccco2)nc1S(=O)(=O)c1ccccc1	-8%	-2%
CC(=O)c1ccc(N(CC(=O)NC2CCCC2)C(=O)CNC(=O)c2cccs2)cc1	-20%	-6%
COc1cccc(CNC(=O)c2ccc(COc3ccccc3)cc2)c1	-1%	-15%
N#CCCN(C(=O)COC(=O)c1ccc2c(=O)n3c(nc2c1)CCC3)c1ccc(F)cc1	-3%	?
O=C(Nc1cccc(S(=O)(=O)Nc2ccccc2F)c1)c1ccc2ccccc2n1	-7%	-13%
COCCCOc1cc(NCc2ccccc2)c2ncn(C(C)C)c2c1	-22%	-20%
O=C(NCc1ccccc1)C1CCC(CNc2c(N3CCCCC3)c(=O)c2=O)CC1 (stereo not drawn)	7%	0%
Cc1ccc(-c2nc3cccc(C)n3c2Nc2ccc(F)cc2)o1	-18%	-11%
O=C(COC(=O)c1ccccc1)NC1CCCCCC1	-14%	-12%
O=C(NNC(=O)C12CC3CC(CC(C3)C1)C2)c1ccccc1O	10µM*	?
Cc1ccc(S(=O)(=O)Nc2ccc(N3CCOCC3)cc2)cc1C	?	-17%
C[C@H]1COC(=O)[C@@H](Cc2ccc(F)cc2)C/C=C\C[C@@H](CC(=O)N[C@@H](CO)Cc2ccccc2)C(=O)N1	i	-18%
O=C(Nc1cccc(-c2nc3ccccc3o2)c1)c1cc([N+](=O)[O-])ccc1N1CCOCC1	-20%	-18%
Cc1cccc(N2CCN(C(=O)CN3C(=O)COc4ccc(S(=O)(=O)N5CCCCCC5)cc43)CC2)c1C	-15%	-18%
O=S(=O)(O)c1nc2ccccc2n1Cc1ccc(Cl)cc1	i	-9%
COc1ccc(OC)c(CCNC(=O)Cn2ncc3c([nH]c4ccccc43)c2=O)c1	-5%	-6%
CSc1ccccc1OCc1cc(C(=O)N(C)C(C)c2ccccn2)no1 (stereo not drawn)	i	-19%
Cc1ccc(S(=O)(=O)NC(CC(C)C)C(=O)N2CCCCCCC2)cc1 (stereo not drawn)	-23%	-7%
CCN(CC)C(=O)N1CCN(C(=O)N2CCOCC2)CC1	i	7%
Cc1ccc(CNC(=O)CCC2CCCN(C(=O)c3ccc4c(c3)OCO4)C2)o1 (stereo not drawn)	i	-10%
CCCCN(C(=O)C1CCCO1)c1c(N)n(CC(C)C)c(=O)[nH]c1=O (stereo not drawn)	-11%	-6%
COc1ccccc1N(CC(=O)Nc1ccc(Br)cc1F)S(=O)(=O)c1cccs1	i	-4%
COc1ccccc1N1C(=O)N(C(C)=O)C2C1Nc1ccccc1N2C (stereo not drawn)	?	9%
COc1ccc([C@H]2CC(=O)C=C(c3cc(Br)ccc3OC)C2)cc1	-18%	-22%
Cc1cccc(C)c1NC(=O)Cn1nnc(C(=O)Nc2c(C)cccc2C)c1N	-8%	-3%
The list goes on:
SMILES	Vaccinia mCherry	VACV Venus inh
N#CC(Cc1cccs1)c1nc2ccccc2[nH]1 (stereo not drawn)	-14%	-7%
Cc1ccc(CNC(=O)C2CC(c3ccccc3[N+](=O)[O-])=NO2)o1 (stereo not drawn)	-26%	-15%
O=C(c1ccc(S(=O)(=O)N2CCOCC2)cc1)N1CCc2ccccc21	-8%	11%
CCOc1ccc(N(CC(=O)NCCOc2ccc(C)cc2)S(=O)(=O)c2ccccc2)cc1	i	-15%
CCc1ccc(NC(=O)N(Cc2c[nH]c3ccccc23)C2CCCCC2)cc1	-14%	-5%
CC1CCCCN1C(=O)c1cc(S(=O)(=O)N2CCCCC2)c[nH]1 (stereo not drawn)	-14%	-11%
O=c1cccccc1NN=C1CCCCCC1	-11%	-3%
CCc1ccc(C(=O)c2cnc3ccc(F)cc3c2S(=O)(=O)c2ccccc2)cc1	3%	-6%
COc1ccccc1C(=O)N(C1=NC(C)CS1)c1ccc(Cl)cc1 (stereo not drawn)	i	-11%
Cc1cc(C)n2nc(SCC(=O)c3ccccc3)nc2n1	-22%	-9%
CCN1C(=O)c2ccccc2S(=O)(=O)c2ccc(C(=O)NCc3ccccc3)cc21	-3%	-1%
CCOC(=O)N1CCC(NC(=O)CN2C(=O)C(CC)Oc3ccc(C)cc32)CC1 (stereo not drawn)	-17%	-7%

Part of the list above in another layout:
SMILES | Vaccinia mCherry | VACV Venus inh
O=C(Cc1cccc2ccccc12)NN=Cc1ccc2c(c1)CCC2 | -9% | -22%
COc1ccc(-c2nc3ccccc3o2)cc1NC(=O)COc1ccc(C)cc1 | ? | ?
CC(=O)c1sc2nc(-c3ccco3)ccc2c1N | -20% | -10%
COc1ccc(C(=O)NC(=S)NCc2ccccc2)cc1OC | i | -6%
Cc1ccc(-n2c(SCC(=O)Nc3ccc4c(c3)OCCO4)nnc2-c2ccco2)cc1 | -17%[1.46 µM] | -26%
O=C(NCCN1CCOCC1)C1CC(=O)N(c2ccc(F)cc2)C1 (stereo not drawn) | 9% | 1%
CCOc1ccc2oc(C(=O)N3CCCN(C)CC3)c(C)c2c1 | -5% | -8%
COc1ccc2c(C)c(CC(=O)N3C[C@H]4C[C@@H](C3)c3cccc(=O)n3C4)c(=O)oc2c1OC | -13% | -2%
CC(=O)NC(Cc1ccc(F)cc1)C(=O)NC1CCN(C(=O)NCc2ccccc2)CC1 (stereo not drawn) | -8% | 6%
CC(=O)c1cccc(NC(=O)C(C)OC(=O)c2cc(C)oc2C)c1 (stereo not drawn) | -9% | -3%
C[C@@H](CN1C2=NC[C@H](C)N2C[C@H]1Cc1ccc(O)cc1)NC(=O)CCC1CCCCC1 | -13% | -2%
CCN(CC)C(=S)NCCc1ccccc1 | -26% | -22%
CC(C)(C)n1nnnc1C(CCc1ccccc1)N1CCN(C/C=C/c2ccccc2)CC1 (stereo not drawn) | 4% | -14%
COc1ccc(/C=C/C(=O)NCCOc2ccc(C)cc2)cc1 | -20% | -19%
O=C(c1ccccc1F)N1CCN(c2ccc([N+](=O)[O-])c(NCC3CCCO3)c2)CC1 (stereo not drawn) | -14% | -26%

(next part)
SMILES	Vaccinia mCherry	VACV Venus inh
CN(C)S(=O)(=O)c1cc(NC(=O)CN2CCOCC2)ccc1Cl	-14%	-13%
N#Cc1nc(-c2ccc(Cl)cc2)oc1NCC1CCCO1 (stereo not drawn)	-19%	4%
CCc1nc2c(OCCn3cccc3)cccn2c1N(C)C(=O)c1cccs1	-10%	5%
CC(C)Nc1ncnc2c1ncn2[C@H]1CN(Cc2cccnc2)C[C@@H](CO)O1	9%	-7%
CCOC(=O)c1ccccc1NC(=O)Cn1c(=O)n(-c2ccc(CC)cc2)c(=O)c2c(C)c(C(=O)N(C)C)sc21	-20%	-20%
Cc1oc(-c2ccoc2)nc1CN(CC1CCC(=O)N1)C(C)C (stereo not drawn)	i	-12%
CCN(CC)c1ccc(/C=N/NC(=O)CNC(=O)C2COc3ccccc3O2)c(O)c1 (stereo not drawn)	2.8µM*	?
O=C(C=Cc1cccc(O)c1)c1ccccc1O	-5%	-22%
COc1ccccc1OCc1nnc(SCC(=O)N2CCCCC2)o1	7%	-7%
CCCn1c(N)c(C(=O)CSc2nnc(C3CC3)n2Cc2ccccc2)c(=O)[nH]c1=O	·	-8%
CCOc1ccc(N(CC(=O)NCc2ccco2)C(=O)CCC(=O)Nc2nccs2)cc1	i	-10%
O=C(Nc1nc(-c2ccc(Cl)s2)cs1)c1ccccc1	-14%	-16%
COC(=O)CCC(=O)CN	-24%	-19%
CC(NC(=O)c1cc2ccccc2o1)C(=O)O (stereo not drawn)	·	1%
COC(=O)CCNS(=O)(=O)c1ccc2ccccc2c1	i	3%
COc1ccc2[nH]cc(CCNC(=O)C3CC(=O)N(c4ccc(Cl)cc4)C3)c2c1 (stereo not drawn)	?	-13%
C=C1C(=O)[C@]23C[C@H]1CC[C@H]2[C@]1(C)[C@@H](OC(C)=O)CC[C@@](C)(C(=O)OC)[C@H]1C[C@@H]3OC(C)=O	?	?
CCC(C)NC(=O)C1CCC(=O)N1CCc1ccccc1 (stereo not drawn)	-6%	5%
CCOc1cc(C(C(=O)NCC2CCCO2)N(C(=O)Cn2nnc3ccccc32)c2ccccc2OC)ccc1O (stereo not drawn)	-8%	-4%
Cc1ccc(F)c(NC=C2C(=O)OC(C)(C)OC2=O)c1	i	-8%
COc1ccc(C2=NC(C)(C)N(CC(=O)Nc3cccc(C)c3)C2=O)cc1	-7%	-6%
CN(C)C(=O)c1ccc(NC(=O)c2cccc(-n3cnnn3)c2)cc1	-24%	-10%
COc1cc(/C=C2/C(=O)N=C(N)N2C)cc(OC)c1OC	·	0%
O=c1ccccn1Cc1c(F)cccc1Cl	-21%	-9%
Cc1ccc(C(=O)NCc2ccccc2)cc1NC(=O)c1nsc2ccccc12	-6%	-15%
Cc1ccnc(N2C(=O)CSC2c2ccc(Cl)cc2)c1 (stereo not drawn)	-15%	-10%
O=C(NC(=S)NCCc1ccccc1)C1CCCCC1	i	-8%
CCc1ccccc1NC(=O)N[C@H](C(=O)O)C(C)CC (stereo partly drawn)	·	4%
O=C(/C=C/c1ccc(S(=O)(=O)N2CCOCC2)cc1)NC(=S)NCCCn1ccnc1	-16%	?
COc1ccc(N2C(=O)/C(=C\c3ccco3)N=C2SCC(=O)NC(C)(C)C)cc1Cl	i	2%
CCOC(=O)c1cc(-c2ccc(F)cc2)n(CC(=O)Nc2nccs2)c1C	50%[activator]	2%
O=S(=O)(c1ccc(-c2csc(=Nc3ccc(OC(F)(F)Cl)cc3)n2CCCO)cc1)N1CCCC1	?	?
CCN(CC)C(=O)CN1CCN(Cc2ccc3c(c2)OCO3)CC1	6%	2%
O=C1C=C(O)C(n2cncn2)C(c2ccc(F)cc2)C1 (stereo not drawn)	i	-2%

Taken from above, 2 compounds:
SMILES	Vaccinia mCherry	VACV Venus inh
O=C(Cc1cccc2ccccc12)NN=Cc1ccc2c(c1)CCC2	-9%	-22%
COc1ccc(-c2nc3ccccc3o2)cc1NC(=O)COc1ccc(C)cc1	?	?
